# YB-1 expr inh – YB-1 expression inhibition; U2OS, qRT-PCR YB-1 vs CDIP delta delta Cp, 16 h; stronger effect = higher value; zero = DMSO, each unit about twofold; AID 434959; delta delta Cp (YB-1 minus CDIP) (test concentration not listed); actives 0.37% (n = 30,000);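 active = delta delta Cp rounded down to an integer at or above 3, about 3 SD of DMSO wells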;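 note: higher means less YB-1 transcript or more CDIP transcript relative to DMSO; stock transfer was 100 nL into about 100 µL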
# Shh pathway inh – blocks Sonic Hedgehog signaling. Shh-LIGHT2 Gli-luciferase reporter, 30 h. inhibition, % (concentration not given with the values). actives 2.1% (n = 22,000);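 active = replicate mean of 65% or more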;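 note: pathway switched on by Shh-conditioned medium diluted 1 in 25 in low serum; 100 nL library stock added to about 40 µL; 0% = median of neutral wells and 100% = positive control level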
# PD-1 reverse act – activators reversing PD-1 mediated T-cell inhibition. activation, % (test concentration not listed). AID 2316. primary human CD4 T cells, PD-L1 beads, CellTiter-Glo 96 h. 29,000 tested, under 10 active;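 active = replicate mean of 50% or more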;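 note: 0% = median vehicle wells and 100% = positive control; 100 nL library stock added to about 50 µL; numbers are from one replicate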
# MITF inh – MITF inhibition | TRPM1 promoter luciferase, luminescence, 24 h | inhibition, % (test concentration not listed) | actives 0.28% (n = 37,000) | AID 2240;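 active = most replicates at 85% or more, or half of them and the mean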;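 note: human melanocyte line stably carrying TRPM1 promoter luciferase reporter; 0% = vehicle wells and 100% = a positive control; the first replicate is given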
# Active calls of the source: *; . = no result given. Not all compounds are listed; the hit share may differ from the screen's.
# Value order – PD-1 reverse act, YB-1 expr inh, MITF inh, Shh pathway inh
COc1ccc(NC(=O)Nc2cccc3c2O[C@H](CN(C)Cc2ccc4c(c2)OCO4)[C@@H](C)CN([C@H](C)CO)C3=O)cc1
 : -5.2, -0.341, -2.2, 3.6
Cc1ccc(S(=O)(=O)Nc2ccc3c(c2)CC(=O)N([C@H](C)CO)C[C@@H](C)[C@@H](CN(C)C(=O)Nc2ccc(F)cc2)O3)cc1
 : 1.2, -0.366, 8.5, 29.2
C[C@H]1CN([C@@H](C)CO)C(=O)c2cc(N(C)C)ccc2O[C@@H]1CN(C)S(=O)(=O)c1ccc(F)cc1
 : 0.6, -0.257, 11.0, 10.4
C/C=C(\CO)C(=O)O[C@H]1[C@H](O)[C@@H](C(=O)OC)O[C@@H]2C[C@H]3OC(n4cnc5c(N)ncnc54)[C@H](OC)[C@H]3O[C@]21O (stereo partly drawn)
 : 2.8, 1.26, -10.3, -14.0
C[C@H](CO)N1C[C@H](C)[C@@H](CN(C)C(=O)Nc2ccc3c(c2)OCO3)Oc2c(NS(=O)(=O)c3cn(C)cn3)cccc2C1=O
 : 0.7, -0.0456, -0.1, -0.9
CSc1cccc(NC(=O)CNS(=O)(=O)c2ccc(F)cc2)c1
 : 1.0, ., -2.2, .
C[C@H]1CN([C@@H](C)CO)C(=O)c2cc(NC(=O)c3ccncc3)ccc2O[C@@H]1CN(C)Cc1ccc(C(F)(F)F)cc1
 : -1.0, -0.595, 1.1, .
COc1ccc(CN(C)C[C@@H]2Oc3c(NS(=O)(=O)c4cn(C)cn4)cccc3C(=O)N([C@@H](C)CO)C[C@H]2C)cc1
 : 2.6, -1.11, -8.7, -21.9
C[C@H](CO)N1C[C@H](C)[C@H](CN(C)C)Oc2c(NC(=O)Nc3ccc(C(F)(F)F)cc3)cccc2C1=O
 : ., -0.37, -6.8, -34.6
C[C@@H]1CN([C@H](C)CO)C(=O)c2cc(NC(=O)c3ccncc3)ccc2O[C@@H]1CN(C)Cc1ccc2c(c1)OCO2
 : ., -0.0177, -8.3, -12.4
C[C@@H]1CN([C@H](C)CO)C(=O)c2cccc(NS(C)(=O)=O)c2O[C@@H]1CN(C)Cc1ccc(Oc2ccccc2)cc1
 : 0.5, -0.000216, -6.9, -15.2
O=C(CSCCO)Nc1ccc(F)cc1
 : 1.3, ., -3.5, .
C[C@@H]1CN([C@@H](C)CO)C(=O)c2cc(NC(=O)Cn3cnnn3)ccc2O[C@H]1CN(C)C(=O)Nc1ccc(F)cc1
 : 1.7, 0.285, -1.7, 1.0
C[C@@H]1CCCCO[C@@H](CN(C)C(=O)Nc2ccc(F)cc2)[C@@H](C)CN([C@H](C)CO)C(=O)c2cc(NC(=O)c3ccccc3)ccc2O1
 : -1.6, 0.332, 1.8, -25.0
COc1ccc(NC(=O)CSc2nc3ccc([N+](=O)[O-])cc3s2)cc1Cl
 : -2.3, ., 42.6, .
N#Cc1c(Nc2ccccc2)s[nH]c1=O
 : -0.7, -0.254, 7.6, -3.8
CNC[C@H]1Oc2ccc(NC(=O)Nc3ccccc3)cc2CC(=O)N([C@@H](C)CO)C[C@H]1C
 : ., -0.285, -6.5, -12.0
C[C@@H]1CN([C@H](C)CO)C(=O)c2cc(NS(=O)(=O)c3cccs3)ccc2O[C@@H]1CN(C)Cc1ccc(Cl)c(Cl)c1
 : -0.6, 0.103, 10.5, .
O=C(CNC(=O)c1ccccc1)Nc1cccc(-c2cnc3ccccc3n2)c1
 : -3.2, ., 24.6, .
COc1ccc(CN(C)C[C@@H]2Oc3ccc(NC(=O)C4CCCCC4)cc3C(=O)N([C@@H](C)CO)C[C@H]2C)cc1
 : ., 0.123, -5.7, 25.1
Cc1ccc(S(=O)(=O)N(C)C[C@@H]2Oc3c(NS(=O)(=O)c4cccs4)cccc3C(=O)N([C@@H](C)CO)C[C@H]2C)cc1
 : 1.5, 0.0661, -10.2, -13.3
CC(C)NC(=O)Nc1ccc2c(c1)C(=O)N([C@H](C)CO)C[C@H](C)[C@@H](CN(C)C(=O)Nc1ccc(F)cc1)OCCCC[C@@H](C)O2
 : -1.1, 0.36, -1.8, -24.1
C[C@@H]1CN([C@H](C)CO)C(=O)Cc2cc(NC(=O)C3CCCCC3)ccc2O[C@H]1CN(C)Cc1ccc(C(F)(F)F)cc1
 : 1.1, -0.013, -0.5, -37.4
Cc1noc(C)c1S(=O)(=O)Nc1ccc2c(c1)C(=O)N([C@H](C)CO)C[C@H](C)[C@@H](CN(C)C)O2
 : ., -0.111, -4.7, -6.1
COc1ccc(S(=O)(=O)Nc2ccc3c(c2)CC(=O)N([C@@H](C)CO)C[C@@H](C)[C@@H](CN(C)C(=O)Nc2ccc(C(F)(F)F)cc2)O3)cc1
 : -1.9, -0.0705, 3.5, 6.8
COc1ccc(S(=O)(=O)N(C)C[C@H]2Oc3c(NS(=O)(=O)c4ccc(F)cc4)cccc3C(=O)N([C@H](C)CO)C[C@@H]2C)cc1
 : 1.6, 0.141, 2.0, -6.1
O=C(Nc1ccc(Cl)cc1Cl)NC(Cc1ccc(O)cc1)C(=O)O (stereo not drawn)
 : 0.1, ., -22.7, .
C[C@@H]1CN([C@H](C)CO)C(=O)Cc2cc(NC(=O)CCCN(C)C)ccc2O[C@H]1CN(C)S(=O)(=O)c1cccs1
 : ., 0.404, -32.0, -19.7
COc1ccc(NC(=O)CN2CCN(C(=O)c3ccco3)CC2)cc1
 : 1.4, ., -14.3, .
COc1ccc(NC(=O)Nc2ccc3c(c2)C(=O)N([C@@H](C)CO)C[C@H](C)[C@@H](CN(C)S(=O)(=O)c2ccc(C)cc2)O3)cc1
 : ., -0.0847, -7.0, .
Cc1noc(C)c1NC(=O)N(C)C[C@@H]1OCCCC[C@@H](C)Oc2ccc(NS(=O)(=O)c3c(C)noc3C)cc2C(=O)N([C@H](C)CO)C[C@@H]1C
 : 3.8, 0.0208, -1.8, 0.1
CC(C)NC(=O)Nc1ccc2c(c1)CC(=O)N([C@@H](C)CO)C[C@H](C)[C@@H](CN(C)S(=O)(=O)c1ccc(Cl)cc1)O2
 : 1.8, -0.403, 1.9, -15.5
Cc1cc(C(=O)Nc2cccc3c2O[C@@H](CN(C)C(=O)NC(C)C)[C@H](C)CN([C@H](C)CO)C3=O)n(C)n1
 : ., -0.116, -4.0, -32.6
Cc1cc(C)cc(CC(C)CC(=O)Nc2ccccc2I)c1 (stereo not drawn)
 : -0.6, 0.159, -0.2, .
Cc1noc(C)c1NC(=O)N(C)C[C@@H]1Oc2ccc(NS(C)(=O)=O)cc2C(=O)N([C@@H](C)CO)C[C@H]1C
 : 0.7, -0.00846, -8.9, -18.8
C=C1C(=O)O[C@H]2[C@H]1C[C@H](OC(=O)/C(C)=C\C)/C(C)=C\CC[C@@]1(C)O[C@@H]21
 : -15.2, -0.287, 32.9, 5.2
CNC[C@@H]1Oc2ccc(NS(=O)(=O)c3ccc(Cl)cc3)cc2C(=O)N([C@H](C)CO)C[C@H]1C
 : 1.3, 0.164, 3.4, .
C[C@H]1CN([C@@H](C)CO)C(=O)c2cc(NS(C)(=O)=O)ccc2O[C@@H]1CN(C)C
 : 0.3, 0.0604, 1.4, -33.7
O=C(Nc1ccc(NC(=O)c2ccccc2O)cc1)c1ccc(Cl)cc1
 : 3.3, 0.122, -11.0, 96.8*
C[C@H](CO)N1C[C@H](C)[C@H](CN(C)C(=O)Nc2ccc(F)cc2)Oc2ccc(NS(=O)(=O)c3cn(C)cn3)cc2CC1=O
 : -0.8, -0.18, -4.0, -29.7
C=CC(C)(O)CC/C=C(\C)C(=O)OC1C(CO)OC(OC2OC=CC3(O)C(OC(=O)C4=COC(OC5OC(CO)C(O)C(O)C5O)C5C(C)CCC45)C4OC4(C)C23)C(O)C1O (stereo not drawn)
 : ., 0.353, ., 24.7
C[C@H]1CN([C@@H](C)CO)C(=O)c2cccc(NC(=O)c3ccc(-c4nccs4)cc3)c2O[C@@H]1CN(C)C(=O)Nc1cccc2ccccc12
 : ., 0.0811, -9.0, -38.0
Cc1noc(C)c1NC(=O)N(C)C[C@H]1Oc2c(NC(=O)Nc3ccc4c(c3)OCO4)cccc2C(=O)N([C@@H](C)CO)C[C@@H]1C
 : 0.8, 0.0148, -1.2, -12.0
C[C@@H]1CCCCO[C@@H](CN(C)Cc2ccc(Cl)c(Cl)c2)[C@@H](C)CN([C@H](C)CO)C(=O)c2cc(NC(=O)Nc3ccccc3)ccc2O1
 : -1.7, 0.0635, 14.7, -5.3
C[C@H]1CN([C@@H](C)CO)C(=O)c2cccc(NC(=O)Nc3ccc(C(F)(F)F)cc3)c2O[C@H]1CN(C)C(=O)Nc1ccc(F)cc1
 : -5.0, 0.515, 8.7, 24.2
Cc1noc(C)c1S(=O)(=O)Nc1ccc2c(c1)C(=O)N([C@@H](C)CO)C[C@H](C)[C@H](CN(C)C(=O)NC(C)C)O2
 : 0.4, 0.0762, -4.7, -48.9
C[C@@H]1CN([C@H](C)CO)C(=O)Cc2cc(NC(=O)c3ccncc3)ccc2O[C@@H]1CN(C)Cc1ccncc1
 : 1.3, 0.0792, 2.5, -20.4
COc1ccc(C(=O)CSc2nnc(-c3cc4ccccc4o3)n2C)cc1
 : 1.3, ., -0.4, .
O=C(CC1(O)C(=O)N(CCOc2ccccc2)c2ccccc21)c1ccc2c(c1)CCCC2 (stereo not drawn)
 : -0.3, ., 5.0, .
COc1ccc(NC(=O)Nc2ccc3c(c2)C(=O)N([C@H](C)CO)C[C@H](C)[C@@H](CN(C)C(=O)NC2CCCCC2)O3)cc1
 : -0.4, 0.696, 0.7, .
CNC[C@@H]1Oc2ccc(NS(=O)(=O)c3ccc(OC)cc3)cc2CC(=O)N([C@H](C)CO)C[C@H]1C
 : 2.4, 0.29, -0.6, 23.0
O=c1c(-c2ccccc2)c(O)c2cccc3c4ccccc4n1c23
 : 1.3, -0.0319, 13.1, 12.0
C[C@@H]1CN([C@@H](C)CO)C(=O)Cc2cc(NS(=O)(=O)c3cn(C)cn3)ccc2O[C@@H]1CN(C)Cc1ccc(Oc2ccccc2)cc1
 : 1.0, -0.000118, -2.5, -4.7
C[C@H]1CN([C@@H](C)CO)C(=O)c2cc(NC(=O)Cn3cnnn3)ccc2O[C@H]1CN(C)S(=O)(=O)c1ccccc1
 : -0.6, 0.96, -3.3, .
CCN(CC(=O)Nc1ccc(I)cc1)S(=O)(=O)c1ccc(Cl)cc1
 : 0.0, ., 3.0, .
C[C@H]1CN([C@@H](C)CO)C(=O)c2cc(NC(=O)CCC(F)(F)F)ccc2O[C@@H]1CN(C)C
 : ., 0.514, -1.4, -8.4
COc1ccc(C(=O)N(Cc2nc(-c3ccc(Cl)cc3)no2)C(C)C)cc1[N+](=O)[O-]
 : -1.6, ., 24.0, .
COc1ccc(OC)c(NC(=O)CN(c2cccc(Br)c2)S(C)(=O)=O)c1
 : -2.0, ., -1.9, .
C[C@H](CO)N1C[C@H](C)[C@H](CN(C)C(=O)Nc2ccc(F)cc2)Oc2ccc(NC(=O)Nc3ccc4c(c3)OCO4)cc2C1=O
 : -1.7, -0.171, -5.5, 11.6
Cc1cc(NS(=O)(=O)c2ccc(NC(=O)NC3CCCCC3)cc2)no1
 : 0.4, ., -4.4, .

# Next section:
# Value order – PD-1 reverse act, YB-1 expr inh, MITF inh, Shh pathway inh
Cc1ccc(NC(=O)CSc2nnc(-c3ccc(C(C)(C)C)cc3)o2)c(C)c1
 : 0.8, ., 26.6, .
C[C@@H]1CCCCO[C@H](CN(C)C(=O)Nc2cccc3ccccc23)[C@@H](C)CN([C@H](C)CO)C(=O)c2cc(NC(=O)Nc3ccc4c(c3)OCO4)ccc2O1
 : ., 0.427, -9.9, -3.9
C[C@H]1CN([C@@H](C)CO)C(=O)c2cccc(NC(=O)Nc3ccc(F)cc3)c2O[C@@H]1CN(C)S(=O)(=O)c1ccc(F)cc1
 : 0.8, -0.0762, -3.0, -16.9
Cc1ccc(S(=O)(=O)Nc2cccc3c2O[C@H](CN(C)S(=O)(=O)c2cccs2)[C@@H](C)CN([C@@H](C)CO)C3=O)cc1
 : 1.8, -0.394, -13.9, -32.0
COc1ccccc1NC(=O)CSC1CC(=O)N(c2ccc(I)cc2)C1=O (stereo not drawn)
 : -0.6, ., -5.8, .
CC(C)NC(=O)N(C)C[C@@H]1OCCCC[C@@H](C)Oc2ccc(NC(=O)Nc3cccc4ccccc34)cc2C(=O)N([C@H](C)CO)C[C@@H]1C
 : ., 0.164, -12.2, 12.7
Cc1nc(SCC(=O)Nc2ccc(C(=O)O)cc2)[nH]c(=O)c1C
 : 3.6, ., -3.6, .
COc1ccc(CCNC(=O)c2ccc(-c3cccc(C(F)(F)F)c3)o2)cc1OC
 : 1.9, ., -1.9, .
